Assay outcomes from PubChem.
DUX4 inh – blocks DUX4-driven transcriptional activation. 293T-iDUX4 ZSCAN4-Gaussia luciferase reporter, 24 h; hits give low values. 37,000 tested, 0.8% active. activity change, negative = inhibition, % (concentration not given with the values). AID 1224904;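 active means -10% or lower and over 25 points stronger than a control reporter; inconclusive means -10% or lower with a smaller gap; inactive means above -10%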;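 further: 0% = median of neutral control wells and -100% = median of positive control wells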
DUX4 inh difference – also measured in DUX4 inh; calls as there; Gaussia minus Italica difference, %; measured here: selective DUX4 reporter inhibition;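 worked out from the two reporters; negative = selective loss of the DUX4 reporter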
DUX4 inh control – also measured in DUX4 inh; calls as there; activity change, negative = inhibition, %; measured here: Italica tet-on control reporter;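 0 = neutral control and -100 = positive control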
An asterisk follows results filed as active; u = inconclusive; x = not tested or not shown.

SMILES | DUX4 inh | DUX4 inh difference | DUX4 inh control
CCCNC(=O)N1C[C@H](O)COC[C@H]2O[C@H](CC(=O)N[C@@H]3CCN(Cc4ccccc4)C3)CC[C@@H]21 | 7.9 | 3.9 | 4.0
COCC(=O)N1[C@H](C(=O)NCc2ccccc2)[C@@H](CO)[C@@H]2Cn3c(cccc3=O)[C@@H]21 | 4.4 | 3.3 | 1.1
CC=Cc1ccc2n(c1=O)C[C@H]1[C@H](CO)[C@@H](C(=O)Nc3ccc(-c4ccccc4)cc3)N(C(C)=O)[C@@H]21 (mixture of isomers) | 1.0 | 6.0 | -5.1
CC(C)C(=O)Nc1ccc2c(c1)C(=O)N(C)[C@@H]1CC[C@H](CC(=O)NCc3ccccc3F)O[C@H]1CO2 | 0.7 | 0.7 | 0.1
O=C(C[C@@H]1CC[C@@H]2[C@H](COC[C@H](O)CN2C(=O)Nc2ccc(Cl)c(Cl)c2)O1)NC1CCC1 | -4.1 | 3.1 | -7.2
Cc1ccc(-c2ccc([C@H]3[C@H]4CN(C(=O)Nc5ccc(F)cc5)CC(=O)N4[C@H]3CO)cc2)cc1 | -4.8 | -6.2 | 1.5
CCCNC(=O)N(C)C[C@H]1Oc2ncc(C#CCc3ccccc3)cc2C(=O)N([C@@H](C)CO)C[C@@H]1C | -0.5 | 1.8 | -2.3
CO[C@H](CN(C)C(=O)c1cnccn1)[C@H](C)CN([C@H](C)CO)S(=O)(=O)c1ccc(C)cc1 | -4.2 | -2.1 | -2.0
O=C(C[C@H]1CC[C@H]2[C@@H](COC[C@@H](O)CN2S(=O)(=O)c2cccc(Cl)c2)O1)NC1Cc2ccccc2C1 | -2.7 | -10.3 | 7.7
COc1cccc(NC(=O)N2C[C@@H](O)COC[C@H]3O[C@H](CC(=O)NC4Cc5ccccc5C4)CC[C@@H]32)c1 | 7.9 | 11.3 | -3.5
CO[C@H]1CN(C)C(=O)c2ccc(NC(C)=O)cc2OC[C@@H](C)N(C(=O)C2CCOCC2)C[C@@H]1C | -6.6 | -3.2 | -3.4
O=C(Cc1ccccn1)N1CC(=O)N2[C@@H](CO)[C@@H](c3ccc(C#CCC4CCCC4)cc3)[C@@H]2C1 | -5.8 | 5.8 | -11.5
O=C(c1ccncc1)N1CC(=O)N2[C@H](C1)[C@@H](c1ccc(C#CCC3CCCC3)cc1)[C@@H]2CO | u | x | x
C[C@@H]1CN([C@@H](C)CO)C(=O)c2cc(NS(C)(=O)=O)ccc2O[C@H]1CN(C)C | -3.2 | -3.0 | -0.2
O=C(C[C@H]1C[C@H]2c3cc(NC(=O)c4ccc5c(c4)OCO5)ccc3O[C@H]2[C@H](CO)O1)NCCc1ccccc1 | u | x | x
CC(C)NC(=O)N1CC2(C1)[C@@H](c1ccccc1)[C@@H](CO)N2C(=O)C1CCCCC1 | 5.8 | 5.3 | 0.5
COc1ccccc1C#Cc1ccc([C@@H]2[C@H](CO)N3CCCCN(C(=O)C4CCC4)C[C@@H]23)cc1 | u | x | x
CCNC(=O)c1cc2c(c(-c3cccc(-c4cccc(F)c4)c3)n1)[C@@H](CCO)N([S@](=O)C(C)(C)C)C2 | -4.4 | -4.8 | 0.4
CCC(=O)N1CC[C@H]2[C@H](CO)Nc3ccc(C#Cc4ccccc4F)cc3[C@H]21 | 13.6 | 12.5 | 1.1
CS(=O)(=O)N1[C@H](CO)[C@@H](c2ccccc2)[C@@H]1C#N | 1.3 | -7.3 | 8.5
Cn1cnc(S(=O)(=O)N2C[C@H](O)COC[C@H]3O[C@@H](CC(=O)NC4Cc5ccccc5C4)CC[C@@H]32)c1 | 4.9 | 2.8 | 2.1
C/C=C/c1ccc([C@@H]2[C@@H](CN(CC)C(C)=O)N(S(C)(=O)=O)[C@H]2CO)cc1 | -4.7 | -7.9 | 3.2
CNC[C@H]1OCc2ccccc2-c2ccccc2C(=O)N([C@@H](C)CO)C[C@@H]1C | 10.9 | -3.0 | 13.9
CO[C@H]1CC[C@@H]2CCN(C)C(=O)[C@@H](C)N(C)C(=O)c3cc(C#N)ccc3OC[C@@H]1O2 | -2.4 | -3.6 | 1.1

Arranged by the number under DUX4 inh (smallest number first): 3 from the list above
SMILES | DUX4 inh | DUX4 inh difference | DUX4 inh control
C/C=C/c1ccc([C@@H]2[C@@H](CN(CC)C(C)=O)N(S(C)(=O)=O)[C@H]2CO)cc1 | -4.7 | -7.9 | 3.2
CCNC(=O)c1cc2c(c(-c3cccc(-c4cccc(F)c4)c3)n1)[C@@H](CCO)N([S@](=O)C(C)(C)C)C2 | -4.4 | -4.8 | 0.4
Cn1cnc(S(=O)(=O)N2C[C@H](O)COC[C@H]3O[C@@H](CC(=O)NC4Cc5ccccc5C4)CC[C@@H]32)c1 | 4.9 | 2.8 | 2.1

(further entries)
SMILES | DUX4 inh | DUX4 inh difference | DUX4 inh control
CCS(=O)(=O)Nc1ccc2c(c1)C(=O)N(C)[C@@H]1CC[C@@H](CC(=O)NC3CCCCC3)O[C@H]1CO2 | 0.1 | 0.6 | -0.5
O=C(C[C@@H]1CC[C@@H]2[C@H](COC[C@@H](O)CN2Cc2ccccc2F)O1)N[C@H]1CCN(Cc2ccccc2)C1 | -2.8 | 0.9 | -3.7
COc1ccc2c3c(n(C)c2c1)[C@H](CO)NCC31CCN(S(=O)(=O)c2cccc(F)c2)CC1 | 9.5 | 0.2 | 9.3
COc1ccc(S(=O)(=O)Nc2cccc3c2O[C@H](CN(C)S(=O)(=O)c2cn(C)cn2)[C@@H](C)CN([C@H](C)CO)C3=O)cc1 | 3.4 | -1.6 | 5.1
Cc1noc(C)c1S(=O)(=O)N(C)C[C@H]1OCCCC[C@H](C)Oc2ccc(NC(=O)CCC(F)(F)F)cc2C(=O)N([C@@H](C)CO)C[C@@H]1C | 0.5 | 0.4 | 0.1
C[C@@H]1CCCCO[C@@H](CN(C)C(=O)CCCN(C)C)[C@H](C)CN([C@H](C)CO)C(=O)c2cc(NC(=O)c3ccccc3)ccc2O1 | -2.8 | -1.5 | -1.3
COc1ccc2c3c([nH]c2c1)[C@@H](CO)NCC31CCN(C(=O)Nc2ccc3c(c2)OCO3)CC1 | 9.9 | -3.1 | 13.0
O=C(C[C@H]1CC[C@@H]2[C@H](COC[C@H](O)CN2C(=O)Nc2ccc(Cl)c(Cl)c2)O1)NC1CCC1 | 7.3 | 12.5 | -5.2
C[C@@H]1CN([C@@H](C)CO)C(=O)c2cc(NS(C)(=O)=O)ccc2O[C@@H](C)CCCCO[C@@H]1CN(C)C(=O)Cc1ccccc1 | -4.1 | -1.2 | -2.8
COc1ccccc1C#Cc1ccc2c(c1)[C@H]1[C@H](CCN1S(=O)(=O)c1cccc(C)c1)[C@H](CO)N2 | -0.3 | -2.4 | 2.1
O=C(C[C@@H]1CC[C@H]2[C@@H](COC[C@@H](O)CN2Cc2ccc(Oc3ccccc3)cc2)O1)N1CCN(c2ccccc2)CC1 | u | x | x
C/C=C/c1ccc([C@H]2[C@@H](CO)N3C(=O)CN(C(=O)Nc4cccc(OC)c4)C[C@H]23)cc1 | 14.0 | 5.5 | 8.5
CO[C@@H]1CN(C)C(=O)c2ccc(NC(=O)c3ccc(F)cc3)cc2OC[C@@H](C)N(C(=O)CN(C)C)C[C@H]1C | -1.4 | 0.1 | -1.5
CCCNC(=O)N1C[C@H]2[C@@H](c3ccccc31)[C@H](CO)N2Cc1cc(F)ccc1F | 2.1 | -2.9 | 5.0
CS(=O)(=O)N1CCCCN2[C@H](C1)[C@@H](c1ccc(-c3cccc(C#N)c3)cc1)[C@@H]2CO | 6.7 | 16.1 | -9.4
CN(C)c1ccc2c(c1)[C@@H]1C[C@@H](CC(=O)NCc3ccc(-c4ccccc4)cc3)O[C@@H](CO)[C@@H]1O2 | u | x | x
C[C@H](NC(=O)[C@@H]1[C@@H](CO)[C@@H]2Cn3c(cccc3=O)[C@H]1N2Cc1ccncc1)c1ccccc1 | 1.6 | -7.0 | 8.6
C[C@@H]1CCCCO[C@@H](CN(C)Cc2ccc(C(F)(F)F)cc2)[C@@H](C)CN([C@H](C)CO)C(=O)c2cc(NC(=O)CCCN(C)C)ccc2O1 | -1.0 | 13.0 | -14.0
Cc1noc(C)c1NC(=O)Nc1ccc2c(c1)CC(=O)N([C@@H](C)CO)C[C@@H](C)[C@H](CN(C)S(=O)(=O)c1cccs1)O2 | 3.0 | 0.8 | 2.2
O=C(C[C@@H]1CC[C@@H]2[C@H](COC[C@@H](O)CN2C(=O)c2ccc3c(c2)OCO3)O1)NCCN1CCCCC1 | 4.4 | -0.6 | 4.9
CC=Cc1ccc2n(c1=O)C[C@H]1N[C@@H]2[C@@H](C(=O)NC2CCCC2)[C@@H]1CO (mixture of isomers) | 20.2 | 15.1 | 5.1
C[C@H](CO)N1C[C@H](C)[C@H](CN(C)Cc2ccc(Oc3ccccc3)cc2)Oc2c(NS(=O)(=O)c3cn(C)cn3)cccc2C1=O | -3.1 | -4.6 | 1.5
O=C([C@@H]1[C@@H](CO)[C@@H]2Cn3c(ccc(-c4ccc(F)cc4)c3=O)[C@@H]2N1Cc1cocn1)N1CCOCC1 | -1.3 | -6.8 | 5.4
C[C@@H]1CN([C@H](C)CO)C(=O)CCCn2cc(nn2)CO[C@@H]1CN(C)C(=O)CCC(F)(F)F | 5.4 | 2.1 | 3.3
COc1ccccc1CN1CC[C@@H]2[C@H](CO)Nc3ccc(-c4cccc(F)c4)cc3[C@@H]21 | u | x | x
CN(C)CCCNC(=O)[C@@H]1[C@@H](CO)[C@@H]2Cn3c(ccc(C4=CCCC4)c3=O)[C@H]1N2Cc1cocn1 | 5.3 | 6.3 | -1.1
CC(C)C(=O)Nc1ccc2c(c1)C(=O)N(C)[C@H]1CC[C@@H](CC(=O)O)O[C@H]1CO2 | -0.1 | -4.5 | 4.4
CN(C)C(=O)c1ccc(-c2ccc([C@@H]3[C@H](C#N)N(S(C)(=O)=O)[C@H]3CO)cc2)cc1 | 4.2 | 1.3 | 2.9
COC(=O)C[C@@H]1CC[C@H]2[C@H](COc3ccc(NC(=O)C4CCOCC4)cc3C(=O)N2C)O1 | 0.5 | -0.2 | 0.7
CO[C@@H]1CN(C)C(=O)c2ccc(NS(C)(=O)=O)cc2OC[C@@H](C)N(CC2CC2)C[C@H]1C | 7.7 | 5.9 | 1.8
CNC[C@@H]1OCCCC[C@@H](C)Oc2ccc(NC(=O)Nc3c(C)noc3C)cc2C(=O)N([C@H](C)CO)C[C@H]1C | 1.8 | -1.9 | 3.7
CCC(=O)N1[C@@H](CO)[C@@H](c2ccccc2)[C@@H]1CN(CC)C(=O)c1cccc(F)c1 | -0.3 | 0.0 | -0.3
C/C=C/c1ccccc1[C@@H]1[C@H](C#N)N(C(=O)c2cccnc2)[C@H]1CO | 16.6 | 14.9 | 1.6
CN(C)CC(=O)Nc1ccc2c(c1)[C@H]1C[C@H](CC(=O)NCc3ccc4c(c3)OCO4)O[C@H](CO)[C@H]1O2 | 2.9 | 2.7 | 0.3
CN(C[C@H]1[C@@H](c2ccccc2)[C@@H](CO)N1C(=O)C1CCC1)C(=O)c1ccncc1 | -2.6 | -3.3 | 0.7
COc1ccccc1-c1cnc2c(c1)C(=O)N([C@@H](C)CO)C[C@@H](C)[C@H](CN(C)Cc1cncnc1)O2 | -4.6 | -6.0 | 1.3
COc1ccc(S(=O)(=O)N(C)C[C@@H]2Oc3c(NC(=O)Nc4c(C)noc4C)cccc3C(=O)N([C@H](C)CO)C[C@@H]2C)cc1 | -1.7 | -2.0 | 0.3
Cc1ccccc1-c1ccc([C@@H]2[C@@H](CO)N3CCCCN(S(C)(=O)=O)C[C@@H]23)cc1 | 2.9 | 6.4 | -3.5
C[C@@H]1CN([C@@H](C)CO)C(=O)CCCn2cc(nn2)CO[C@@H]1CN(C)Cc1ccccc1C(=O)O | 5.9 | 4.7 | 1.3
CC(C)(C)[S@@](=O)N1Cc2cc(C(=O)NC3CCC3)nc(-c3cccc(Br)c3)c2[C@H]1CCO | -0.1 | 0.9 | -1.0
COc1ccc(C[C@@H]2CCn3cc(nn3)COC[C@@H](C)NC2=O)cc1 | 2.6 | 3.3 | -0.6
C[C@@H]1CCCCO[C@H](CN(C)Cc2ccc(C(=O)O)cc2)[C@H](C)CN([C@H](C)CO)C(=O)c2cc(NC(=O)NC3CCCCC3)ccc2O1 | 1.5 | 3.9 | -2.5
Cc1noc(C)c1NC(=O)N(C)C[C@@H]1Oc2c(cccc2N(C)C)C(=O)N([C@H](C)CO)C[C@@H]1C | 2.0 | -1.3 | 3.3
CN1c2ccc(-c3ccc(C#N)cc3)cc2[C@@H]2[C@@H](CCN2C(=O)CC2CC2)[C@@H]1CO | 2.2 | -4.4 | 6.6
COCC(=O)N(C[C@H]1N[C@H](CO)[C@@H]1c1ccc(C2=CCCC2)cc1)C1CCCC1 | -5.6 | -2.1 | -3.5
COC(=O)C[C@@H]1C[C@@H]2c3cc(NC(=O)C4CCOCC4)ccc3O[C@@H]2[C@@H](CO)O1 | 6.0 | 1.5 | 4.5
CCCN(C)C[C@@H]1Oc2cc(/C=C/c3ccccc3)ccc2S(=O)(=O)N([C@@H](C)CO)C[C@@H]1C | -0.6 | -1.5 | 0.9
COCC(=O)N1CCC2(CC1)CN(Cc1cc(F)ccc1F)[C@@H](CO)c1[nH]c3cc(OC)ccc3c12 | u | x | x
O=C(c1ccccn1)N1CC(=O)N2[C@H](CO)[C@@H](c3ccc(C#Cc4ccccc4)cc3)[C@H]2C1 | 11.8 | 14.8 | -3.1
C[C@@H]1CN([C@H](C)CO)C(=O)CCCn2cc(nn2)CO[C@@H]1CN(C)C(=O)Nc1cccc(Oc2ccccn2)c1 | 3.1 | 1.1 | 2.0
CCc1cnc(N2[C@@H](C#N)[C@@H](c3ccc(C4=CCCC4)cc3)[C@@H]2CO)s1 | -7.0 | -4.5 | -2.5
CC=Cc1ccc2n(c1=O)C[C@H]1[C@H](CO)[C@@H](C(=O)NCc3cccc(OC)c3)N[C@@H]21 (mixture of isomers) | -2.8 | -3.9 | 1.1
C[C@@H]1CN([C@H](C)CO)C(=O)c2cccc(NS(=O)(=O)c3ccc(Cl)cc3)c2O[C@@H]1CN(C)C(=O)Nc1ccc2c(c1)OCO2 | -0.3 | -6.9 | 6.6

A portion of the library. The share of hits here may be higher or lower than overall.
